# Screening results: PubChem, National Center for Advancing Translational Sciences (NCATS)
# NS1 inh = blocks influenza NS1 protein function. S. cerevisiae slowed by influenza A NS1, growth recovery by OD600. Potency, µM (series often up to 46.1 µM), for inactives: top-dose activity, positive = more growth. hit rate 0.4% among 270,000. AID 2326; further: actives are rising curves; nearly all actives have a fitted effect of over 50% in size
#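 Recovery from NS1-induced slow growth read by OD600 in budding yeast switched to galactose assay medium (pH 6.0, -URA) at 1:100 dilution. Compound 23 nl per well; the matching strain lacking NS1 serves as control.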
# RE007 growth inh = less growth of the S. pombe RE007 Vpr strain. S. pombe RE007 Vpr strain, BacTiter-Glo ATP luminescence, 24 h; control for the full effect not named in the record. Potency, µM (titrated, usually from 92.2 µM), inactives show top-dose activity change, negative = less growth. hit rate 0.21% among 360,000. AID 651644; active = well fitted falling curve with a large enough effect; inconclusive = small, poorly fitted or top-dose-only effect; inactive = no such curve, though single readings can be large or run the other way;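 further: on the % scale 0 is the no-effect control and ±100 the full control effect; nearly all actives have a fitted effect of over 50% in size; the assay follows cell death caused by Vpr and the record does not say whether a fall means rescue or toxicity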
#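 Fission yeast RE007 carrying one integrated HIV-1 vpr copy, seeded at OD 0.01 in PMG+AL medium with 23 nL pinned compound. Grown 24 h at 30 degrees; viability read by BacTiter-Glo luminescence after 5 min.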
# StopGo reporter = lowers the luciferase signal of an FMDV 2A StopGo reporter; Potency, µM (titrated, usually from 57.9 µM), for the others: top-dose signal change, negative = less light; human cells with a luciferase reporter of 2A StopGo recoding; control for the full effect not named in the record; hit rate 1.2% among 410,000; AID 1159524; active = well fitted falling curve with a large enough effect; inconclusive = small, poorly fitted or top-dose-only effect; inactive = no such curve, though single readings can be large or run the other way; tested in HEK293T cells; further: on the % scale 0 is the no-effect control and ±100 the full control effect; nearly all actives have a fitted effect of over 45% in size; luciferase light after 4 h
# Cruzain inh noDet = blocks cruzain activity in detergent-free assay. P25779. purified cruzain, Z-FR-AMC fluorescence, no detergent. Potency, µM, for the others: max response, negative = inhibition, usual class: inhibitors. hit rate 2.3% among 200,000; active means well fitted curve in the direction sought with a large enough effect; inconclusive means small, poorly fitted or top-dose-only effect, or another doubt; inactive means no such curve, though single readings can be large; an effect the other way counts as inactive or inconclusive;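 further: plate controls were enzyme without inhibitor for no effect and buffer without enzyme for full effect; nearly all actives have a fitted effect of over 40% in size; top concentration of the series not given in the record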
# Target sequence (P25779 123-467 limits assumed): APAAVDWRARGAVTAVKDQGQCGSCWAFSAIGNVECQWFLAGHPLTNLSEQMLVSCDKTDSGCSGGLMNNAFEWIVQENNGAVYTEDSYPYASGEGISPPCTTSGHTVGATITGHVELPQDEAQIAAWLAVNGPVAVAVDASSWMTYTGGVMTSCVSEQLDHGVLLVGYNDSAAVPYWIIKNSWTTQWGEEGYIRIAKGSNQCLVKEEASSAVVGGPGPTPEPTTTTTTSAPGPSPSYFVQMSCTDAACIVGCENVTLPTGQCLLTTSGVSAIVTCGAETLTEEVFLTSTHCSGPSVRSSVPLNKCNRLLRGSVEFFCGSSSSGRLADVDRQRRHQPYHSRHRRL
#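 Purified cruzain at 1.5 nM, pre-incubated 15 min with compound at room temperature in 100 mM sodium acetate pH 5.5, 5 mM DTT, 0.00005% Triton X-100. Reaction started with 2 uM Z-FR-AMC; AMC fluorescence increase over 60 s gives rate.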
# SARS PLpro yeast = inhibitors of SARS-CoV papain-like protease in yeast; hit rate 0.19% among 330,000; Potency, µM (doses to about 32.9 µM), for inactives: at the top dose activity, positive = growth rescue; S. cerevisiae expressing SARS-CoV PLpro, growth rescue; control for the full effect not named in the record; AID 485353; further: 0% is about no effect; nearly all actives have a fitted effect of over 55% in size; growth read by luminescence after 48 h
# MARV entry inh = Marburg virus entry inhibition; Marburg virus pseudotyped entry inhibition, cell reporter; control for the full effect not named in the record; about a third of the inactives were read at about 46 µM; Potency, µM (highest dose often 37.8 µM), without a hit: at the highest dose activity change, negative = inhibition, usual class: inhibitors; hit rate 1.8% among 300,000; AID 540276; active = well fitted inhibition curve with a large enough effect; inconclusive = small, poorly fitted or top-dose-only effect, or effect the other way; inactive = flat fitted curve, though single readings scatter; tested in HEK293 cells; about a fifth of its hits are not listed in these tables; further: on the % scale 0 is the no-effect control and ±100 the full control effect; luciferase read-out
# Cruzain inh Det = cruzain (T. cruzi) inhibition with detergent | P25779 | Potency, µM, for the others: max response, negative = inhibition, most hits filed as inhibitors | hit rate 0.43% among 200,000 | purified cruzain, Z-FR-AMC fluorescence, 0.01% Triton; active means well fitted curve in the direction sought with a large enough effect; inconclusive means small, poorly fitted or top-dose-only effect, or another doubt; inactive means no such curve, though single readings can be large; an effect the other way counts as inactive or inconclusive;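 further: plate controls were neutral wells for no effect and buffer without enzyme for full effect; nearly all actives have a fitted effect of over 40% in size; top concentration of the series not given in the record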
#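 Purified cruzain (1.5 nM final) was preincubated with compounds for 15 min at room temperature in 100 mM sodium acetate pH 5.5, 5 mM DTT, 0.01% Triton X-100. Reaction started with 2 uM Z-FR-AMC; AMC fluorescence change over 60 s gave activity.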
# LASV entry inh = inhibitors of Lassa virus binding or cell entry | Lassa virus pseudotype entry inhibition, cell reporter; control for the full effect not named in the record | Potency, µM (highest dose often 37.9 µM), inactives show at the highest dose activity change, negative = inhibition, hits mostly inhibitors | AID 540256 | hit rate 1.2% among 300,000; active means well fitted inhibition curve with a large enough effect; inconclusive means small, poorly fitted or top-dose-only effect, or effect the other way; inactive means flat fitted curve, though single readings scatter; tested in HEK293 cells; further: on the % scale 0 is the no-effect control and ±100 the full control effect; nearly all actives have a fitted effect of over 50% in size; luciferase read-out
# Numbers without * were called inactive; ? = inconclusive; . = not tested or not shown; & = joins results of further samples; [ ] = dose if it differs, or a comment. Unless noted, the call rests on the fitted dose curve; in most records, active means well fitted rising curve with a large enough effect; inconclusive means small, poorly fitted or top-dose-only effect; inactive means no such curve, though single readings can be large or run the other way. Potency means the concentration at half of the fitted maximal effect.
SMILES,NS1 inh,RE007 growth inh,StopGo reporter,Cruzain inh noDet,SARS PLpro yeast,MARV entry inh,Cruzain inh Det,LASV entry inh
O=C(CC1C(=O)NCCN1Cc1ccc(-c2ccccc2)cc1)NCCCn1cccn1 (stereo not drawn),-2%,-8%,-21%,.,0%,.,.,.
COc1ccccc1N1CCN(CC(=O)N2N=CCC2c2ccccc2)CC1 (stereo not drawn),7%,-16%,-16%,-12%,6%,4%,-1.5%,0%
c1cc(Nc2ncnc3sccc23)cc(-c2nnc3n2CCCCC3)c1,4%,-2%,-23%,3%,2%,2%,-1.0%,2%
CCOc1ccc(CCNC(=O)Cn2nnc(-c3ccc(OC)c(OC)c3)n2)cc1OCC,.,.,-16%,?,.,-5%[46.1 µM],0.0%,-29%[46.1 µM]
COc1ccc(CCC(C)N2CCC(CO)(Cc3ccccc3)CC2)cc1 (stereo not drawn),14%,3%,-14%,.,-1%,?,.,-2%[46.1 µM]
CC(=O)c1cc(-c2ccc(F)cc2)n(CCC(=O)NCc2ccc(C)cc2)c1C,.,.,5%,22%,.,.,-2.8%,-2%[46.1 µM]
CC1=C(C(=O)Nc2ccc(C)cc2C)C(c2cccs2)n2nc(SCc3cccc(C)c3)nc2N1 (stereo not drawn),.,.,0%,2%,.,-13%[46.1 µM],1.2%,17%[46.1 µM]
O=C(CSc1ncnc2[nH]ncc12)Nc1nc(-c2ccc(F)c(F)c2)cs1,.,0%,14µM*,.,-6%,?,.,?
C/C(Cc1ccccc1)=N/NC(=O)CNC(=O)C(c1ccccc1)c1ccccc1,8%,11%,7%,.,3%,-14%[46.1 µM],.,6%[46.1 µM]
CCOC(=O)c1ccc2c(c1)nc(SCC(=O)c1ccco1)n2CC,-38%,13%,8%,-5%,6%,?,-7.6%,?
Cc1cc(C)n2nc(SCN3C(=O)c4ccccc4C3=O)nc2n1,?,-2%,0%,-3%,13%,4%,5.4%,10%
Cc1ccc(N2CC(C(=O)OCc3nc(N)nc(Nc4ccccc4C)n3)CC2=O)cc1 (stereo not drawn),.,6%,-24%,.,-4%,-2%[46.1 µM],.,8%
COc1ccc(NCc2ccc3c(c2)OCO3)cc1Cl,-55%,5%,.,0%,-10%,12%,-7.1%,28%
CN(C)c1oc(-c2ccccc2Cl)nc1S(=O)(=O)c1ccccc1,-49%,24%,12%,-6%,-7%,.,-11%,.
O=C(c1ccc(Cl)cc1)c1oc2ccccc2c1CS(=O)(=O)c1ccccc1,7%,-10%,-26%,?,3%,4%,-2.8%,-31%[14.3 µM]
O=C(NCCOCCO)C(=O)Nc1c2c(nn1-c1ccc(F)cc1)CSC2,.,.,-13%,?,.,.,-8.9%,8%[46.1 µM]
CC(=O)c1cccc(NC(=O)COC(=O)C2=COCCO2)c1,.,4%,22%,.,1%,14%[46.1 µM],.,-4%[46.1 µM]
CCOC(=O)CSc1nc2cc(C)ccc2cc1C#N,-10%,-3%,55%[activator],-3%,2%,?,-4.2%,?
Cc1ccc(Oc2c(C(N)=O)cc([N+](=O)[O-])cc2[N+](=O)[O-])cc1,-15%,11%,?,0%,12%,?,-2.2%,?
CCN(CC)CCCCNc1ncc2cc(-c3cc(OC)cc(OC)c3)c(NC(=O)NC(C)(C)C)nc2n1,-12%,2%[18.4 µM],-7%,.,9%,.,.,.
CSc1ccc(CNc2nnnn2C)cc1,3%,-7%,-16%,.,1%,-16%[46.1 µM],.,19%[46.1 µM]
Cc1ccc(C)c(Nc2ncnc3onc(C)c23)c1,.,.,-14%,1%,.,.,-0.8%,?
CSc1ccccc1NC(=O)CN(C)C(=O)Cn1c(=O)oc2ccccc21,.,5%,-22%,.,0%,-5%[46.1 µM],.,3%
COc1ccc(-c2nnc(SCC(=O)NCC3CCCO3)n2C)cc1 (stereo not drawn),3%,50%,4%,.,-1%,-1%[46.1 µM],.,5%[46.1 µM]
Cc1cc(C)c2c(N)c(C(=O)N3CCN(c4ncccn4)CC3)sc2n1,-3%,2%,11%,21%,3%,?,-9.3%,1%
Cc1ccc(C)c(N2CCN(C(=S)Nc3ccc4nc(N5CCOCC5)cc(C)c4c3)CC2)c1,.,-3%,-11%,.,1%,?,.,1%
COc1ccc(-c2ccc3ccccc3n2)cc1,-6%,-25%,-15%,.,-2%,?,.,?
COc1ccc(S(=O)(=O)N2Cc3ccccc3CC2C(=O)Nc2nccs2)cc1OC (stereo not drawn),-34%,-7%,11%,5%,-2%,?,-4.1%,?
CCCn1c(-c2ccc(OC)cc2)nc2nc3ccccc3nc21,-13%,4%,13%,25%,-8%,10%,-7.6%,-4%
COc1ccc(C2NC(=O)NC(C)=C2C(=O)Nc2ccccc2)cc1OC (stereo not drawn),.,.,-6%,2%,.,.,-0.4%,6%[46.1 µM]
COc1ccc(N(CCCN2C(=O)c3cccc4cccc(c34)C2=O)C(=O)c2cccc(OC)c2)cc1,?,20%,-7%,-6%,-12%,?,-4.1%,?
Cc1cc(C)nc(NS(=O)(=O)c2ccc(Br)s2)c1,5%,10%,103%[activator],-8%,14%,.,1.0%,.
COc1ccc(CCCc2nnc(SCC(=O)Nc3nc(C)cs3)n2C)cc1,3%,-15%,-18%,5%,1%,2%,3.4%,2%
COc1ccc(C2=C(O)C(C)N(c3ccccc3)C2=N)cc1OC (stereo not drawn),-1%,0%,.,3%,3%,6%,0.5%,13%
O=c1c2[nH]c3ccccc3c2ncn1CCN1CCNCC1,6%,15%,9%,6%,-1%,0%,-2.6%,?
Cc1ccc(NS(=O)(=O)c2cc(C(=O)NCCSC3CCCCC3)ccc2C)cc1,1%,3%,-8%,2%,1%,?,-8.1%,?
Cn1nnnc1SCC(=O)N1c2ccccc2Sc2ccccc21,-5%,13%,-20%,-11%,-1%,-3%[46.1 µM],-6.4%,4%
COc1ccc(N)cc1-n1c(C)ccc1C,10%,-4%,3%,.,-1%,?,.,-1%[46.1 µM]
CCN(CC)CCNC(=O)c1ccc(NC(=O)c2cccc(S(=O)(=O)N3c4ccccc4CC3C)c2)cc1 (stereo not drawn),-6%,0%,-12%,.,-5%,.,.,.
COc1cccc(CNC(=O)c2cccs2)c1,-11%,21%,19%,.,5%,1%[46.1 µM],.,4%
CC(C)OC(=O)c1cc(NC(=O)C2C3CCC(O3)C2C(=O)O)cc(C(=O)OC(C)C)c1 (stereo not drawn),-3%,-5%,-10%,19%,-9%,1%&1%,2.2%,-10%
COc1ccc(C)cc1-n1nnnc1SCC1CCCCO1 (stereo not drawn),-64%,7%,28%,0%,1%,24%,3.0%,3%
COc1ccccc1NC(=O)NC1(C(=O)N2CCCCCC2)CCCCC1,-4%,3%,8%,2%,15%,-2%,1.2%,-10%
CC(C)C(NS(=O)(=O)c1ccc2c(c1)OCCCO2)C(=O)O (stereo not drawn),4%,5%,10%,-8%,3%,2%,1.7%,2%
O=C1CCCCCN1C(=O)c1cccc(C(=O)N2CCCCCC2=O)c1,2%,11%,-17%,6%,-1%,-1%,-0.5%,2%
O=C(O)CCC(=O)OCC1CCCO1 (stereo not drawn),?,0%,-21%,-4%,-2%,1%,-3.5%,-5%
CCNc1nc(NCC)nc(C(=O)NN)n1,3%,1%,-18%,4%,-2%,-29%[46.1 µM],-2.8%,4%
Cc1ccc(NS(=O)(=O)c2cn(C)cn2)cc1,?,7%,-10%,5%,1%,-7%,0.8%,7%
O=C1C2C3C=CC(C3)C2C(=O)N1/N=C/c1ccc(-c2ccccc2[N+](=O)[O-])o1 (stereo not drawn),-33%,0%,50%[activator],?,-3%,?,-12%,-22%
Cc1cc(C)c2nc(SC3CCOC3=O)cc(C)c2c1 (stereo not drawn),0%,-5%,1%,.,0%,25%[46.1 µM],.,-13%

# Further compounds follow:
SMILES,NS1 inh,RE007 growth inh,StopGo reporter,Cruzain inh noDet,SARS PLpro yeast,MARV entry inh,Cruzain inh Det,LASV entry inh
CC(C)CC1NC(=O)N(CC(=O)NC2CCCCC2)C1=O (stereo not drawn),.,3%,-24%,.,-3%,16%[46.1 µM],.,1%
COc1ccc(/C=C/C(=O)Nc2nc(C)cc(C)n2)cc1OC,11%,19%,8%,-27%,10%,11%[46.1 µM],-22%,6%
COC(=O)c1ccccc1NS(=O)(=O)c1ccc2c(c1)CCCN2C(C)=O,.,.,38%[activator],10%,.,-14%[46.1 µM],-4.5%,-4%[46.1 µM]
CC(=NNc1nc2ccccc2o1)c1ncccn1,.,?,-4%,.,.,0.4µM*,.,0.89µM*
CC(C)n1nc(C(=O)Nc2nc3ccc(S(C)(=O)=O)cc3s2)c2ccccc2c1=O,4%,12%,.,14%,3%,0%&-1%,2.6%,-2%
CCCc1cc(=O)oc2cc(OCC(=O)NCCCn3ccnc3)c(Cl)cc12,8%,-1%,-10%,.,8%,.,.,.
O=C(NCc1ccco1)/C(=C\c1ccco1)NC(=O)c1ccco1,?,-13%,-11%,.,0%,.,.,.
O=C(Nc1ccccc1N1CCN(C(=O)c2ccc(Cl)cc2)CC1)c1ccc([N+](=O)[O-])o1,-34%,4%,-20%,.,-20%,?,.,?
CCCCC(=O)Nc1ccc(N2CCN(C(=O)CC)CC2)cc1,2%,5%,3%,8%,3%,7%,5.6%,6%
Cc1ccc(NC(=O)NCc2c(-n3cccc3)sc3c2CCCC3)c(Cl)c1,.,.,1%,0%,.,3%[46.1 µM],-1.4%,-7%[46.1 µM]
Cc1ccc(-c2nn(CCC(=O)NN3CCOCC3)c(=O)c3ccccc23)cc1,1%,-12%,-15%,.,2%,.,.,.
CC(C)n1c(O)c(N=NC(=O)CNC(=O)Cc2ccc(Cl)cc2)c2ccccc21,4%,-7%,?,.,-19%,.,.,.
Cc1ccc(-c2cc(C(=O)Nc3c(C)n(C)n(-c4ccccc4)c3=O)[nH]n2)c(O)c1C,0%,-28%,-15%,.,1%,?,.,6%
COc1ccccc1C(=O)C1CCCN(C(=O)c2ccc3c(c2)OCCO3)C1 (stereo not drawn),0%,-6%,4%,.,0%,-26%[46.1 µM],.,0%
